TRPML1 inh: qHTS for Inhibitors of the Human Mucolipin Transient Receptor Potential 1 (TRPML1); TRPML1-inducible cells, Ca2+ dye fluorescence, FDSS; stronger effect = lower value; inhibition of EC80 agonist-evoked calcium signal; activity change, negative = inhibition, % (no concentration beside the values); 390,000 compounds, 0.02% hits; AID 624415, 2012; in the data active means activity change below about -50%; inconclusive means about -30% to -50%; inactive means above about -30%;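 note: stimulus is agonist 54-4 at its EC80 concentration; % is set by controls: 0 for no effect and ±100 for the full control effect; compound concentration not given in the record; the text of the record puts the active cut at -80%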
Target sequence (Q9GZU1 whole entry, looked up): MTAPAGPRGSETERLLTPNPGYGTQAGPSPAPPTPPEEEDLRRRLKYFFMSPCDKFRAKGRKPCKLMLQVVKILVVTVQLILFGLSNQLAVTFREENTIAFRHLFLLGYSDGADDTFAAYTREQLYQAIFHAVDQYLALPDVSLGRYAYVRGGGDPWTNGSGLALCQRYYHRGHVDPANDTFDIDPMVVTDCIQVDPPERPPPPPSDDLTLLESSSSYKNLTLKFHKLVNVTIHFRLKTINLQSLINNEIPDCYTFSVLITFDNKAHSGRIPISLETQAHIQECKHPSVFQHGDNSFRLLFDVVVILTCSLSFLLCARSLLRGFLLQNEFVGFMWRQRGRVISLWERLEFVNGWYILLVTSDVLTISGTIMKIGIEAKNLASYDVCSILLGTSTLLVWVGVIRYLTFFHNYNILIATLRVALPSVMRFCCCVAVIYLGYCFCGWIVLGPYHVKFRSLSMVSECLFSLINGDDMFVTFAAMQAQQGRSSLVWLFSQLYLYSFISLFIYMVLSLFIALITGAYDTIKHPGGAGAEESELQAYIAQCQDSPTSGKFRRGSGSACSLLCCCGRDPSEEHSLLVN
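Calcium fluorescence in TRPML1-DL cells induced overnight with Tet: a 110 s read after compound pin addition, then a 110 s antagonist read after challenge with 54-4 at 4 uM final (EC80).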
TRPV1 PAM: HTS Assay for Compounds that Act as Potentiators of the Vanilloid Receptor 1; TRPV1-expressing cells, Fluo-8 calcium influx, capsaicin EC20 potentiation; host cell line not named in the record; control for the full effect not named in the record; potentiation, % at 8.33 µM; 320,000 compounds, 0.02% hits; AID 540277, 2011; active means potentiation above 80%; inconclusive means 30% to 80%; inactive means below 30%; note: 0% is about no effect
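TRPV1-expressing cells were cultured overnight at 35.5C and loaded with Fluo-8 calcium dye for 40 to 90 min at room temperature. After a 10 s baseline, compound was added and calcium influx was read kinetically for 3 min (ex 480/em 520 nm).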
CtBP-E1A inh: qHTS Assay for Inhibitors of the CtBP/E1A Interaction; AlphaScreen GST-E1A/His-CtBP binding, 1536-well; stronger effect = lower value; control for the full effect not named in the record; activity change, % (test concentration not listed); CtBP / adenovirus E1A interaction (AlphaScreen); 340,000 compounds, 0.49% hits; in the data active means activity change below about -65%; inconclusive means about -30% to -65%; inactive means above about -30%; note: % is set by controls: 0 for no effect and ±100 for the full control effect
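Protein mix (5X: 125 nM each GST-E1A, His-CtBP) was incubated with pinned compound 2 h at 37 deg C in dark, in 50 mM Tris pH 8.0 buffer with 300 mM NaCl. Glutathione donor and nickel acceptor beads followed; AlphaScreen signal read after 1 h.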
D2 potentiator: Beta-Arrestin HTS for Positive Allosteric Modulators of the Human D2 Dopamine Receptor: Potentiators. 360,000 compounds, 0.23% hits. D(2) dopamine receptor (Homo sapiens), P14416. potentiation, % (test concentration not listed). DiscoveRx D2 beta-arrestin cells, luminescence, 90 min; 100% = 57 uM dopamine signal; active = potentiation of 50% or more; inconclusive = 30% to 50%; inactive = 30% or less;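 note: compound concentration not given in the record; tested on top of an EC20 dose of dopamine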
Target sequence (P14416 whole entry, looked up): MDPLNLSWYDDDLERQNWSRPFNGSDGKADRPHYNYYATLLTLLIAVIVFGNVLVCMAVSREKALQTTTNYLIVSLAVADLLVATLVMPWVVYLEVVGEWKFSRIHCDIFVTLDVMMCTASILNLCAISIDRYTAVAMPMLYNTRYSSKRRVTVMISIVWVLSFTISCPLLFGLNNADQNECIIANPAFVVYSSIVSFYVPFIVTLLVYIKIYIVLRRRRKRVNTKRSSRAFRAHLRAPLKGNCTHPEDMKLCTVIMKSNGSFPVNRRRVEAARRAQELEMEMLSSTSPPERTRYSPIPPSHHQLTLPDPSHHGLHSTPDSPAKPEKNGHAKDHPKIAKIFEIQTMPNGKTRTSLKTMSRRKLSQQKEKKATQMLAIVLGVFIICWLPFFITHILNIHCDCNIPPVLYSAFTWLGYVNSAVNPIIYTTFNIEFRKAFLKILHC
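D2 cells co-treated with compound plus 50 nM dopamine (EC20) for 90 min at 37 deg C to detect potentiation. Beta-arrestin recruitment was read as enzyme-fragment luminescence after 1 h at ambient temperature. Full response was set by 57 uM dopamine.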
TRPML1 agonist: qHTS for Agonists of the Human Mucolipin Transient Receptor Potential 1 (TRPML1); Mucolipin-1 (Homo sapiens), Q9GZU1; TRPML1-expressing cells, Ca2+ dye fluorescence, FDSS; host cell line not named in the record; reference of the full effect not given here; activation, % (concentration not given with the values); 410,000 compounds, 0.12% hits; in the data active = activation above about 50%; inconclusive = about 30% to 50%; inactive = below about 30%; note: 0% is about no effect; the text of the record puts the active cut at 80%
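Calcium fluorescence on an FDSS kinetic reader gave the read-out. Tet-induced TRPML1-DL cells were plated overnight, dye-loaded (Ca8 with quencher, 45-90 min, room temperature, dark), then read 110 s after compound addition, and again 110 s after 4uM final 54-4 (EC80).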
Six1-Eya2 inh: qHTS Assay for Inhibitors of the Six1/Eya2 Interaction. Homeobox protein SIX1 (Homo sapiens) + Protein phosphatase EYA2 (Homo sapiens), …. AlphaScreen GST-Six1/His-Eya2 binding, biochemical; stronger effect = lower value; control for the full effect not named in the record. activity change, % (concentration not given with the values). 360,000 compounds, 0.56% hits. AID 651725, 2012; in the data active = activity change below about -65%; inconclusive = about -30% to -65%; inactive = above about -30%; note: % is set by controls: 0 for no effect and ±100 for the full control effect
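Compounds are tested against tagged Six1 and Eya2 proteins bridged by glutathione donor and nickel acceptor beads; after a one-hour incubation at 37 °C without light, AlphaScreen emission is recorded.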
* marks the source's active call; other numbers are inactive results; ? = inconclusive; . = no result given; & = joins results of further samples.

SMILES	TRPML1 inh	TRPV1 PAM	CtBP-E1A inh	D2 potentiator	TRPML1 agonist	Six1-Eya2 inh
CNC(=S)N/N=C(\C)c1ccc(C)c(C)c1	2	-16	-19	-27	0.8	-10
CCOC(=O)C1(CCCc2ccccc2)CCN(C(=O)C2CCCO2)CC1 (centres undefined)	-25	-17	-4	-2	0.2	3
O=C(Cn1c(=O)oc2ccccc21)NCc1ccco1	5	2	-4	-15	0.5	8
CCOC(=O)Cc1csc(NC(=O)Cc2ccccc2)n1	-10	-5	-21	11	0.5	7
CCCn1c(N)cc(=O)n(C)c1=O	4	5	0	-6	0.3	2
CCNC(=O)C1CCCN1C(=O)C(CCCN=C(N)N)NC(=O)C(CC(C)C)NC(=O)C(Cc1cn(Cc2ccccc2)cn1)NC(=O)C(Cc1ccc(O)cc1)NC(=O)C(CO)NC(=O)C(Cc1c[nH]c2ccccc12)NC(=O)C(Cc1cnc[nH]1)NC(=O)C1CCC(=O)N1 (centres undefined)	8	2	-7	-12	-0.4	1
CC(C)CC(NC(=O)C1CCC(C)CC1)C(=O)NCc1ccco1 (centres undefined)	-1	-7	18	-7	0.9	10
Cc1cccc2cc(=O)[nH]c(C)c12	-20	16	2	0	0.2	1
O=C(NCC1CCCO1)Nc1cc(Cl)cc(Cl)c1 (centres undefined)	-10	1	.	-10	0.3	6
O=C(NCCOc1ccccc1F)Nc1ccc(Br)cc1	-22	-9	.	-4	2.4	-2
COc1ccccc1NC(=O)N(Cc1ccc2c(c1)OCO2)Cc1nc2ccccc2c(=O)[nH]1	20	-16	2	-25	-0.4	-2
CCCN(Cc1nnc(-c2ccccc2Cl)o1)C(=O)c1ccc(C)c(S(=O)(=O)N2CCOCC2)c1	29	-15	1	13	1.2	-5
Brc1cc(-c2ccccc2)nc(-c2ccccc2)n1	29	.	41	-7	2.5	52
O=C(COC(=O)Cc1cccc(F)c1)NCCc1ccccc1	17	-26	0	1	1.8	3
O=C(COC(=O)CCN1C(=O)C2CC=CCC2C1=O)Nc1ccc(Cl)cc1F (centres undefined)	4	4	7	-4	0.0	3
CC(=O)c1c(C)[nH]c(C(=O)N2CCN(C(=O)c3ccco3)CC2)c1C	-8	7	-10	26	-0.5	-5
CC(=O)n1cc([C@@H]2C=C(C(=O)N3CCOCC3)O[C@H](OCc3ccc(CO)cc3)C2)c2ccccc21	3	19	0	-5	0.1	-2
Cc1ccc(S(=O)(=O)N2C[C@@]3(O)Cn4c(=O)ccc(=O)n4C[C@@]3(OC(=O)NCc3ccccc3F)C2)cc1	.	.	-16	.	-0.4	-20
COc1ccc(CC(=O)Nc2cccc(-c3nnc(-c4cccc(C)c4)o3)c2)cc1OC	-3	-3	0	27	-0.5	-3
O=c1c2sccc2nc(SCc2ccc([N+](=O)[O-])cc2)n1Cc1ccccn1	12	-2	-9	-11	3.0	-24

Some of the entries so far, with each value named:
COc1ccc(CC(=O)Nc2cccc(-c3nnc(-c4cccc(C)c4)o3)c2)cc1OC
- TRPML1 inh: -3
- TRPV1 PAM: -3
- CtBP-E1A inh: 0
- D2 potentiator: 27
- TRPML1 agonist: -0.5
- Six1-Eya2 inh: -3
O=c1c2sccc2nc(SCc2ccc([N+](=O)[O-])cc2)n1Cc1ccccn1
- TRPML1 inh: 12
- TRPV1 PAM: -2
- CtBP-E1A inh: -9
- D2 potentiator: -11
- TRPML1 agonist: 3.0
- Six1-Eya2 inh: -24

Remaining list, next part
SMILES	TRPML1 inh	TRPV1 PAM	CtBP-E1A inh	D2 potentiator	TRPML1 agonist	Six1-Eya2 inh
CCCC(C)NC(=O)c1cc(C(=O)OC)cc([N+](=O)[O-])c1 (centres undefined)	2	-11	-7	4	0.2	8
CCCCCCNC(=O)c1cccc(-c2ccc(C)c3ccccc23)n1	4	7	12	-7	0.2	10
COc1ccc(-c2cn(CCCOCc3ccccc3)nn2)cc1	-4	-19	11	-7	-0.5	10
O=c1cc(O)nc(SCc2ccccc2)n1-c1ccc(F)cc1	-7	8	5	-9	0.0	1
COc1ccc(-c2nc(CS(=O)CC(=O)NCCCN3CCOCC3)c(C)o2)cc1OC (centres undefined)	9	4	.	-7	0.5	3
Nc1nc2c(ncn2[C@@H]2O[C@H](CNS(=O)(=O)N3CCc4ccccc4C3)[C@@H](O)[C@H]2O)c(=O)[nH]1	-13	.	1	-3	0.4	1
CC12CCC(C(=NO)C1=O)C2(C)C (centres undefined)	2	.	?	-14	0.4	1
Cc1cc(NC(=O)c2ccc3c(c2)OCCO3)ccc1NC(=O)c1ccco1	19	9	-20	12	1.0	2
Cc1nnc(NC(=O)c2sc3nc(-c4cccs4)cc(C(F)(F)F)c3c2N)s1	19	1	11	-15	52*	-19
CC(C)CN(CC(C)C)C(=O)COc1ccccc1C(N)=O	30	12	-6	-3	4.2	8
O=S(=O)(Nc1nc2cc3c(cc2nc1Cl)OCCO3)c1ccccc1	23	2	.	-4	0.1	1
O=C(NC1CCCCCC1)C1CCCN(S(=O)(=O)c2cccs2)C1 (centres undefined)	3	-8	1	3	-0.4	4
COC(=O)c1ccccc1NC(=O)Nc1ccc(Br)cn1	-6	-1	0	-5	0.3	4
CCCn1cnc2cc(NCc3ccccn3)ccc21	20	.	-10	-2	-0.7	-10
O=C(CC[C@H]1O[C@@H](n2cnc3c(NC(=O)c4ccccc4)ncnc32)[C@H](O)[C@@H]1O)NCCCN1CCOCC1	.	.	7	-4	-0.3	7
O=C1c2ccccc2C(Nc2ccc3c(c2)OCCO3)N1Cc1ccccc1 (centres undefined)	7	-17	?	2	0.8	-27
CC(=O)c1cccc(OCC(=O)OCC(=O)Nc2cc(S(=O)(=O)N3CCCCC3)ccc2C)c1	6	.	0	8	-0.4	4
CCCCOc1ccc(N(CC(=O)NCCOC)C(=O)CCC(=O)Nc2ccccn2)cc1	-4	0	-6	-6	0.0	12
CN1CCC(N2CCN(C3CN(C4CCCCC4)S(=O)(=O)C3)CC2)CC1 (centres undefined)	.	.	5	-6	-0.2	8
C=CCCN(Cc1ccccc1)S(=O)(=O)c1cc(Br)ccc1Br	44	-2	29	-3	2.8&1.4	36

Copied from the list:
Entry for `O=S(=O)(Nc1nc2cc3c(cc2nc1Cl)OCCO3)c1ccccc1` under D2 potentiator: -4
Entry for `O=C(NC1CCCCCC1)C1CCCN(S(=O)(=O)c2cccs2)C1` (centres undefined) under TRPML1 agonist: -0.4
Entry for `COC(=O)c1ccccc1NC(=O)Nc1ccc(Br)cn1` under TRPV1 PAM: -1

(more compounds)
SMILES	TRPML1 inh	TRPV1 PAM	CtBP-E1A inh	D2 potentiator	TRPML1 agonist	Six1-Eya2 inh
O=C(O)CCCC(=O)N1CCN(c2nc(-c3ccccc3)c3ccccc3n2)CC1	0	3	4	-3	-0.4	1
COc1ccc(-c2ccc(SCC(=O)N3CC(=O)Nc4ccccc43)nn2)cc1	11	9	-6	0	0.0	-8
CCCCNc1nc(N)nc(-c2cc(Cl)ccc2O)n1	9	-8	24	-16	7.9	-2
O=C1Nc2cc(C(=O)N3CCOCC3)ccc2SC1N1CCOCC1 (centres undefined)	-4	-1	3	-4	0.3	2
COc1ccc(-c2sc3cc4c(cc3c2C#CCO)OCO4)cc1	-18	-8	0	-8	2.1	6
Cc1cc(C)n(C(C)CC(=O)Nc2ccc3c(c2)OCO3)n1 (centres undefined)	23	-1	.	-3	0.3	1
COc1cc(C(=O)N2CCN(C3CCCCC3)CC2)cc(OC)c1OC	.	0	.	21	.	4
COc1ccc(NC(=O)CN(C2CCCCC2)S(C)(=O)=O)cc1Cl	-2	-11	2	-17	-0.9	-3
O=c1c2[nH]c3cccc(Cl)c3c2ncn1Cc1ccncc1	-22	6	-7	-2	-0.1	-13
CC(=O)NCc1ccc(S(=O)(=O)N/N=C/c2ccc(Br)cc2)cc1	11	-9	8	-29	0.9	-3
O=C(CCCNS(=O)(=O)c1cccc2nsnc12)NCc1ccc(Cl)cc1	12	14	-9	-9	0.4	0
CC(C)Cn1c(SC(C)C(=O)NC2CC2)nnc1-c1ccccc1F (centres undefined)	0	-8	0	-5	-0.8	0
CCN1C(=O)[C@@H]2[C@@H](c3ccc(SC4CCCCC4)c(OC)c3)N3CCC[C@@]3(C(=O)OC)[C@@H]2C1=O	20	?	-9	-11	0.0	-13
Cc1cc(C(=O)OCC(=O)Nc2ccccc2C)c(C)o1	18	-4	7	-5	2.1	-2
COc1ccc(S(=O)(=O)NNC(=O)c2sccc2-n2cccc2)cc1	-8	-1	.	0	0.1	-4
CCCCn1c(N)c(N(CCOC)C(=O)C2CC(=O)N(Cc3ccc(C)cc3)C2)c(=O)[nH]c1=O (centres undefined)	-2	9	2	-3	0.1	-2
O=C(COc1ccccc1[N+](=O)[O-])NC1CC1	-12	-1	0	1	3.0	2
O=C(c1ccco1)N1CCN(C2CN(CCc3ccccc3)S(=O)(=O)C2)CC1 (centres undefined)	28	.	3	0	-0.4	0
CC1(C(=O)Nc2ccccc2)Cc2c(-c3cccc(C(F)(F)F)c3)ccnc2O1 (centres undefined)	.	.	-1	2	0.4	-2
CN(Cc1c(C(=O)N/N=C/c2c(F)cccc2Cl)nnn1-c1nonc1N)c1ccccc1	29	-1	-14	-9	2.3	-6
Oc1cccc(-c2sc3ccccc3c2-c2ccc(OCCN3CCCCC3)cc2)c1	.	.	-2	.	0.2	-22
CCOc1ccc(NC(=O)COC(=O)Cn2cnnn2)cc1OCC	-21	8	6	-8	0.3	1
Cc1nc(SCC(=O)Nc2c(C)n(C)n(-c3ccccc3)c2=O)c(C#N)c(C)c1C	4	4	.	2	-1.4	19
COc1ccc(CC(=O)NNC2=Nc3cccc4cccc2c34)cc1OC	-3	-28	.	-30	-0.5	0
Nc1ncc2c(n1)CCN(c1ccc([N+](=O)[O-])cc1)C2	17	12	-1	-3	0.0	7
O=C(CCc1nnc(-c2ccc3c(c2)OCO3)o1)NCCc1ccccc1F	23	-5	0	-9	0.5	3
Cc1cc(-c2ccccc2)n2ncc(C#N)c2n1	-5	-2	-17	-8	-0.6	8
CC1CCC(NC(=O)CCCCn2c(=O)[nH]c3ccsc3c2=O)CC1 (centres undefined)	17	15	-26	1	1.5	-5
COc1ccc(/C=C2\Sc3ccc(C(=O)NCCN4CCCCCC4)cc3N(C)C2=O)cc1	-8	15	.	-2	0.4	-16
O=C(OCC1OC(n2cnc3c(N(C(=O)c4ccccc4)C(=O)c4ccccc4)ncnc32)C(O)C1F)c1ccccc1 (centres undefined)	-4	8	-8	-1	1.5	-7
CCN1C(=O)N[C@@H](CCc2ccccc2)C(C(C)=O)=C1C	-13	.	3	-7	0.0	12
Cc1cc(-n2c(C)cc(C(=O)CSc3nnnn3-c3ccc(Cl)cc3)c2C)no1	-4	14	7	-5	1.5	3
COc1ccccc1NC(=S)NC(NC(=O)c1ccco1)C(Cl)(Cl)Cl (centres undefined)	41	-14	-7	-33	1.4	1
